Beta apoptosis: blocks beta cell apoptosis; hit rate 0.8% among 300,000; protection from apoptosis, % (test concentration not listed); AID 435005; INS-1E cytokine-induced death, ATP luminescence, 48 h; percent of positive-control rescue, neutral wells zero;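 active means all replicates at 75% or more, or half of them and the mean; inconclusive means half reach 75% but not the mean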;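 further: 0% = cytokine-treated negative control wells and 100% = positive control rescue; higher means more ATP so stronger rescue from cytokine killing; wells of about 40 µL received 100 nL stock; the first replicate is given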
ALR H2O2 inh: human ALR oxidase inhibition via reduced H2O2; P55789; purified ALR, DTT oxidation, H2O2 HRP-luminol luminescence; inhibition, % (concentration not given with the values); hit rate 3.8% among 290,000; AID 485317;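 active means mean and each replicate at 75% or more; inconclusive means only one of the two met; inactive means neither met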;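 further: stock transfer was 7.5 nL into about 7.5 µL; 0% = neutral wells and 100% = wells with inactivated enzyme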
Target sequence (P55789 whole entry, looked up): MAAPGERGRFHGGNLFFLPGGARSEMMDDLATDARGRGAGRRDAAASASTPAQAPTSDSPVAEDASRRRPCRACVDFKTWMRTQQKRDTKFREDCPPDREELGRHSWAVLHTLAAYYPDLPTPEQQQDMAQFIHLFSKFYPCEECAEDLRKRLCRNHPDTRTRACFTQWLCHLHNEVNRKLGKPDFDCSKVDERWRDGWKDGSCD
Beta2AR agonist: agonists of human beta-2 adrenergic receptor inducing internalization; P07550; Am2.2-beta2AR cells, FAP receptor internalization, flow cytometry; reference of the scale not given here; response, % (test concentration not listed); hit rate 0.43% among 340,000;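 active means response above a set limit, near 3 SD of response in nonfluorescent compounds, cut at about 42% in these data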;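 further: stock transfer was 100 nL into about 11 µL; a reference agonist was the positive control; negative values mostly stem from fluorescent compounds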
Target sequence (P07550 whole entry, looked up): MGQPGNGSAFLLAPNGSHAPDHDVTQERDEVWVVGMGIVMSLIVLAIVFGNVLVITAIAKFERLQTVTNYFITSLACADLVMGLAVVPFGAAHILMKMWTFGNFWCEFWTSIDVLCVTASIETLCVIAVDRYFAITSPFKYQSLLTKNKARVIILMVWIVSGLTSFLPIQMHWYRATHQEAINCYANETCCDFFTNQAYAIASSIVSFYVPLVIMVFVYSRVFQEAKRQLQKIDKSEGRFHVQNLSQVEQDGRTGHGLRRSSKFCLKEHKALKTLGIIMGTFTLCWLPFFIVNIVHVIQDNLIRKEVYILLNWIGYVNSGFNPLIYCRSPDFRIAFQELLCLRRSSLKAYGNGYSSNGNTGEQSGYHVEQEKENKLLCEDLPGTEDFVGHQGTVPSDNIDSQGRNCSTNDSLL
Ecoli rRNA inh: inhibitors of bacterial rRNA selective over humanized ribosomes; E. coli WT GFP vs humanized-ribosome RFP mutants, fluorescence, 24 h; stronger effect = lower value; DMSO median 0, no signal -100; GFP signal change (wild-type ribosome), % (test concentration not listed); hit rate 1.6% among 350,000; AID 720706;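 active means significant combined selectivity score with lowered wild-type GFP, culture density cut under 30%, mutant RFP and density less affected; inactive means any of these conditions unmet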; further: one replicate is shown; some compounds called inactive have numbers as strong as hits
A1 inh: inhibitors of the anti-apoptotic protein A1, read as caspase activation; caspase activation, % (no concentration beside the values); MEF A1-2A-BIM cells, Caspase-Glo 3/7 luminescence, 3 h; percent of clofoctol response, vehicle zero; hit rate 0.066% among 330,000;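 active means over half of replicate activation scores above 10%, or exactly half above 10 with the replicate mean above 10; inconclusive means replicate mean below 10 yet half the replicates above 10; inactive means over half of replicates below 10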;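 further: wells of about 30 µL received 50 nL stock; many hits fall short of the cut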
LANA-H2A inh: blocks KSHV LANA binding to histone H2A/H2B | cell-free LANA-H2A/H2B peptide, fluorescence polarization | inhibition, % (no concentration beside the values) | AID 2629 | hit rate 0.6% among 320,000; in the data active means inhibition mostly above about 10%, no sharp cut-off; inactive means mostly below about 6.7%;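 further: stock transfer was 7.5 nL into about 10 µL; 0% = median of vehicle wells and 100% = median of positive control wells; one replicate is shown; the record names a cut of 25% in any replicate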
T cruzi inh: blocks replication of Trypanosoma cruzi; T. cruzi beta-gal in NIH3T3, luminescence, 90 h; inhibition, % (test concentration not listed); hit rate 1.4% among 300,000; AID 1885;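 active means mean inhibition across valid replicates above about 55%, limit read from the data; inconclusive means mean below that limit but half or more replicates reach it; inactive means mean below it, under half of replicates reach it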;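 further: signal also drops with host cell toxicity which is not excluded here; 0% = plate median of DMSO wells and 100% = zero luminescence signal; higher percent means less beta-gal luminescence so fewer parasites; stock transfer was 50 nL into about 50 µL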
Calb FLC: C. albicans growth modulation with fluconazole; C. albicans CaCi-2 (fluconazole-resistant clinical isolate) + fluconazole, Alamar Blue growth, 48 h; growth inhibition, % (test concentration not listed); hit rate 0.57% among 300,000;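 active means most replicates above 75%; inconclusive means exactly half above 75%; inactive means most below 75%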;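 further: all wells also contain fluconazole at 8 µg/ml as a sub-toxic cotreatment; 0% = median of DMSO wells and 100% = median of geldanamycin control wells; wells of about 8 µL received 7.5 nL stock; the first replicate is given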
Ecoli rRNA inh OD600: recorded beside Ecoli rRNA inh, whose call it bears; OD600 change, %; measured here: OD600 growth;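 optical density of the mix in the first replicate; 0 = DMSO median and -100 = no signal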
Ecoli rRNA inh RFP: recorded beside Ecoli rRNA inh, whose call it bears; RFP signal change, %; measured here: RFP humanized mutant strains;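 first replicate; 0 = DMSO median and -100 = no signal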
* hit, by the source's call; ? = inconclusive; · = not tested or not shown. Only part of the results is shown; count on the stated rates, not on these rows.

SMILES	Beta apoptosis	ALR H2O2 inh	Beta2AR agonist	Ecoli rRNA inh	Ecoli rRNA inh OD600	Ecoli rRNA inh RFP	A1 inh	LANA-H2A inh	T cruzi inh	Calb FLC
C#CCNC(=O)C1=C[C@@H](C2CC2)C[C@@H](OCc2ccc(CO)cc2)O1	0	1	-4	4	23	-6.0	1.7	-2.8	-1	-6
CCN(CC)C(=S)SCC(=O)Nc1ccc(S(N)(=O)=O)cc1	·	-26	5	9	8	-8.2	0.4	-1.0	-16	-8
O=C1[C@H]2[C@@H](c3ccc(Cl)cc3)N3C(=O)N(c4cccc(F)c4)C(=O)[C@@]3(Cc3ccccc3)[C@H]2C(=O)N1C1CCCCC1	1	-6	-3	-7	3	-14	-0.5	4.2	14	-5
Cc1ccc(S(=O)(=O)Nc2ccccc2F)cc1C(=O)NCCCN1CCCC1=O	0	-2	1	·	·	·	0.0	7.9	-2	-7
C/C(=N/NC(=O)c1nnn(-c2nonc2N)c1-c1ccccc1)c1ccncc1	1	-4	5	4	12	-0.1	-1.4	2.6	-16	6
COc1ccc(S(=O)(=O)Nc2cccc(C(C)=O)c2)cc1Br	-1	-14	-2	-37	-39	-4.3	-0.6	5.9	-2	-5
COc1ccc(N2CC(C(=O)NCCS(=O)(=O)N3CCN(c4ccccc4)CC3)CC2=O)cc1 (centres undefined)	-1	3	-1	-2	-1	-2.2	-0.5	0.8	-15	-16
Cn1c(=O)c2c(nc(Cl)n2CC(=O)NC2(C#N)CCCCC2)n(C)c1=O	4	-8	-6	3	13	-1.2	0.2	-0.7	5	31
O=C(O)c1ccc(Cn2cnc3cccnc32)cc1	0	-17	3	13	15	6.4	-0.1	4.5	0	6
O=C(Nc1ccc(Cl)c(S(=O)(=O)N2CCOCC2)c1)c1cc2ccccc2oc1=O	-2	·	2	13	12	0.0	-2.5	-4.5	·	·
CC1CN(C(=O)COC(=O)c2ccc(N)c([N+](=O)[O-])c2)CC(C)O1 (centres undefined)	1	1	4	·	·	·	-0.2	2.7	7	11
Cc1nnc(NC(=O)CSc2ccccc2N)s1	·	0	0	21	3	1.9	1.6	5.8	-9	-1
COc1ccc(CN(C#N)c2nc(C)cc(C)n2)cc1	·	-11	-2	-5	-10	-2.8	1.0	1.9	-1	-1
COC(=O)C(C(=O)N1CCN(C)CC1)C1CCCCCC1 (centres undefined)	-7	4	17	·	·	·	-1.1	0.0	·	·
O=[N+]([O-])c1ccc(CSC2=NCCS2)cc1	-7	99*	-3	5	6	1.7	0.0	1.0	-5	3
Nc1nc2c(nc(N3CCCCC3)n2[C@@H]2O[C@H](CO)[C@@H](O)[C@H]2O)c(=O)[nH]1	1	11	-1	3	11	-4.4	0.9	-1.7	-3	12
COC(=O)/C=C1/SC(=NC(=O)c2ccc(Cl)cc2)NC1=O	-8	·	8	21	1	1.2	0.1	-5.1	-1	6
CCOc1nc(NC(=O)NS(=O)(=O)Oc2ccccc2Cl)nc(-c2ccccc2)n1	-5	-4	1	·	·	·	-1.7	1.1	-21	-3
CC(C)Oc1cccc(-c2nnc(SCC(=O)Nc3ccc4c(c3)OCCO4)n2N)c1	3	·	-10	·	·	·	0.1	0.2	6	15
O=C(Nc1ccc2c(c1)OCO2)N1CCC(CO)(CC2CCCCO2)CC1 (centres undefined)	0	-18	2	5	-1	-1.2	1.9	7.9	3	-14
CCCc1cc(C(=O)NCCc2ccccc2)no1	1	0	-1	0	1	-4.4	-0.1	-7.9	3	1
C/C(=N\O)c1ccc(Cl)cc1Cl	-2	14	2	0	1	2.5	-0.1	-0.7	-5	4
CCNC(=O)/C(=C/c1ccc2c(c1)OCO2)NC(=O)c1ccc(Br)cc1	·	-4	2	·	·	·	-0.6	-0.2	1	4
Oc1ccc(/C=N/NC(=S)NCCN2CCOCC2)c(O)c1	25	·	1	3	3	-8.5	-0.3	4.5	9	32
O=[N+]([O-])c1ccccc1Oc1ccccc1Cl	-6	-3	-6	-2	2	-2.0	1.0	-6.9	4	-4
(continued)
SMILES	Beta apoptosis	ALR H2O2 inh	Beta2AR agonist	Ecoli rRNA inh	Ecoli rRNA inh OD600	Ecoli rRNA inh RFP	A1 inh	LANA-H2A inh	T cruzi inh	Calb FLC
COc1ccc(NC(=O)Cn2cccc2)cc1Cl	-6	1	4	-4	3	2.2	-0.1	-1.8	-9	-5
CCc1ccc(CNC(=O)c2ccc(OC3CCN(C(=O)COC)CC3)cc2)nc1	2	1	-9	3	9	0.0	-0.1	-12	2	-24
COc1ccc(S(=O)(=O)n2cccc2)c(OC)c1	2	-1	-1	4	6	2.4	0.1	4.9	-10	6
Nc1ccc(Oc2ccc3nc(-c4ccccc4)c(-c4ccccc4)nc3c2)cc1	2	0	-2	·	·	·	-0.4	-3.7	-12	17
Cc1nn(CC2CC2)c(=O)n1-c1ccc(Cl)cc1	3	-4	-3	12	6	-2.1	-0.5	-0.1	1	-4
Cc1cc(/C([O-])=C(/C(=S)Nc2ccccc2)[n+]2ccccc2)c(C)n1-c1ccccc1	-5	3	8	·	·	·	-0.1	1.1	14	-17
OCC1(Cc2cccc(Cl)c2)CCCN(Cc2ccc(F)c(F)c2)C1 (centres undefined)	-9	-6	-4	-54	-80	-19	0.8	-11	23	11
COc1ccc(N2CCN(C(=O)c3ccc(C)cc3Cl)CC2)cc1	·	92*	5	·	·	·	0.4	0.4	-10	2
O=C(C[C@H]1C/C=C\C[C@@H](Cc2ccc(F)cc2)C(=O)OC[C@H]2CCCN2C1=O)N[C@@H](CO)Cc1ccccc1	5	0	-8	-5	-6	12	-0.4	0.2	·	·
COc1ccc2c(COC(=O)CNS(=O)(=O)c3ccc(C)c(C)c3)cc(=O)oc2c1	1	-1	7	8	18	-0.7	0.8	-5.1	·	·
Cc1ccc(C)c(N2CCN(C(=O)C3CCN(c4nnc(N5CCCC5=O)s4)CC3)CC2)c1	1	1	13	·	·	·	0.0	-4.0	21	-15
CCn1ccnc1CN1CCc2c([nH]c3ccccc23)C1C1CCCCC1 (centres undefined)	3	1	5	17	16	1.7	0.1	-0.2	30	35
CCC(C)c1ccc(OCC(=O)Nc2ccc3[nH]c(=O)[nH]c3c2)cc1 (centres undefined)	5	-3	2	·	·	·	0.2	5.7	8	13
CCOC(=O)c1c(C)[nH]c(C(=O)COC(=O)C23CC4CC(CC(Cl)(C4)C2)C3)c1C	-1	4	-1	·	·	·	0.1	-1.6	33	48
NC(=O)NCc1cccnc1	0	3	0	5	6	-0.4	0.5	2.3	-7	-11
Cc1ccccc1OCCSc1nnc(-c2cccnc2)n1N	-5	-14	0	-1	0	-3.1	0.5	-0.6	3	12
CCOC(=O)CS(=O)(=O)c1nc(-c2ccc(F)cc2)cc(C(F)(F)F)n1	·	34	104*	·	·	·	0.7	-2.6	-77	3
O=C(Cc1ccc(Cl)cc1)Nc1cccc(S(=O)(=O)Nc2ccccc2F)c1	-6	8	-1	·	·	·	0.3	8.8	-9	1
CCCCNC(=O)COC(=O)CCC(=O)c1ccc(F)cc1	-1	5	-3	·	·	·	0.4	2.5	-10	0
Cc1ccc(S(=O)(=O)NC(C)(C)CSc2nnc(N)s2)cc1	-3	2	7	·	·	·	-1.0	-0.3	-33	-3
CCS(=O)(=O)N1CCC2(CC1)OCCN2S(=O)(=O)c1ccc(C)cc1	-4	2	-3	-3	-3	-0.7	-0.2	-0.1	-19	-12
CC(CN1CCCCC1)NC(=O)c1cccs1 (centres undefined)	·	-5	-7	6	2	3.3	1.5	4.1	-19	6
CC(=O)c1ccc(NC(=O)CO/N=C(\C)c2cccs2)cc1	-2	-7	-3	·	·	·	3.0	-1.8	6	-16
CCCN(CC(=O)Nc1ccc(Cl)cc1Cl)C(=O)c1ccc(=O)[nH]c1	·	-9	-1	0	0	-4.0	0.3	5.5	-2	4
Nc1nc(-c2ccccc2)c(-c2ccccc2)s1	·	?	-11	·	·	·	-0.1	5.4	-25	9
(next part)
SMILES	Beta apoptosis	ALR H2O2 inh	Beta2AR agonist	Ecoli rRNA inh	Ecoli rRNA inh OD600	Ecoli rRNA inh RFP	A1 inh	LANA-H2A inh	T cruzi inh	Calb FLC
CN=C1S/C(=C\c2ccc(OCC(=O)OC)c(OC)c2)C(=O)N1C	·	0	-1	-2	0	-1.0	-7.0	6.9	-5	-3
O=C(COc1cccc2c1CCNC2=O)Nc1cccc(C(F)(F)F)c1	5	7	3	·	·	·	-0.6	-2.1	12	4
Cc1c(C(=O)N2CCN(S(=O)(=O)c3ccc(F)cc3)CC2)oc2ccccc12	3	-3	5	-7	-9	3.6	0.1	3.0	56*	-10
O=C(Nc1cccc(F)c1)c1ccc(S(=O)(=O)N2CCCC2)cc1	·	-5	-2	-17	-16	0.2	0.9	-1.3	-8	-4
COc1cc(/C=N/NC(=S)Nc2cccnc2)cc(OC)c1O	1	95*	11	2	1	-1.0	1.0	-2.4	-7	-17
O=C(NNS(=O)(=O)c1ccccc1)c1cccs1	6	·	-24	·	·	·	0.4	·	4	3
Cn1c(-c2cccc(Br)c2)cnc1NCc1cccnc1	5	85*	-13	·	·	·	-0.4	-8.0	34	-15
Cn1c(C(=O)OC(C(=O)NC2CCCCC2)c2ccccn2)cc2sccc21 (centres undefined)	-6	-1	-25	·	·	·	0.2	-2.1	-3	8
CN(c1ccc(C(=O)NCC2CCCO2)cc1)S(C)(=O)=O (centres undefined)	-1	-6	-6	2	12	-10	-0.2	1.2	-32	1
Cc1cc(C(=O)Nc2ncn[nH]2)ccc1[N+](=O)[O-]	2	-7	7	8	3	2.5	-0.8	-3.5	-18	-5
Cc1cc(N2CCOCC2)nc2ccc(NC(=O)CCC(=O)N3CCC(C)CC3)cc12	0	-10	-12	·	·	·	-0.2	-2.9	5	-7
COc1cc(/C=N/N(C)C2=NS(=O)(=O)c3ccccc32)cc(OC)c1OC	11	-3	12	-1	10	-7.0	-0.6	-4.4	1	1
O=C(CN1C(=O)CSC1=O)Nc1ccc(N2CCOCC2)cc1	-5	1	-2	·	·	·	0.1	-5.0	-14	2
CCOC(=O)c1c(N)sn(-c2ccccc2C)c1=S	-5	97*	-6	·	·	·	0.3	-1.7	-9	-5
O=C(Cn1cc(C(F)(F)F)ccc1=O)NC1CCCC1	-7	-5	4	9	10	2.4	-0.2	-19	·	·
O=S(=O)(c1cccs1)N1CCN(c2ccccn2)CC1	-5	4	15	·	·	·	-0.1	-1.0	-17	-15
Cc1ccc(S(=O)(=O)N/N=C/c2ccc(O)c(O)c2)cc1[N+](=O)[O-]	-3	99*	-2	-49	-74	-28	0.0	1.3	-1	-26
Cc1cc(NC(=O)Cc2ccccc2)no1	-4	3	8	·	·	·	0.8	-7.7	-5	-3
O=C(c1ccc(F)cc1)N(NC(=O)C(O)(c1ccccc1)c1ccccc1)c1ccccc1	5	-15	18	-1	4	-1.4	-0.9	-2.9	-5	1
Cc1nc(CS(=O)(=O)c2ccccn2)sc1C(=O)NNC(=O)c1ccc(Cl)cc1	5	-1	3	·	·	·	0.5	0.4	0	-4
CCCC(C(=O)NC1CCCC1)N(Cc1ccccc1Cl)C(=O)c1snc(C(N)=O)c1N (centres undefined)	9	·	-5	3	10	-1.3	0.4	-0.3	21	7

From PubChem
